# eIF4H inh: inhibitors of RNA binding by human eIF4H. AID 2012. inhibition, % at 35 µM. eIF4H fluorescence polarization binding assay. Q15056. 0.94% of 290,000 active;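 active = 50% or more with normal probe brightness, or confirmed in later tests; inconclusive = above 50% with abnormal brightness, or retests that disagree; inactive = below 50% or failed in later tests; about a fifth of its hits are not listed in these tables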;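 also: calls also rest on retests at 20 µM and on dose response follow-up; 0% = protein and probe with vehicle and 100% = probe without protein; strong numbers were not always called active; many hits fall short of the cut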
# CSC inhib: blocks cancer stem cells; cancer stem cell-like cells viability, luminescence; inhibition, % at 7.5 µM; 1.1% of 300,000 active; AID 2717;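 active = mean at 75% or more and at least half the replicates too; inconclusive = mean and replicates disagree; tested in HMLE shEcad cells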;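 also: 0% = median of negative and 100% = median of positive control wells; the first replicate is given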
# PABP polyA inh: PABP-poly(A) binding inhibition; PABP-poly(A) RNA binding, fluorescence polarization; inhibition, % at 35 µM; 1% of 290,000 active;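 active = 50% or more with normal probe brightness, or confirmed in later tests; inconclusive = above 50% with abnormal brightness, or retests that disagree; inactive = below 50% or failed in later tests; about a fifth of its hits are not listed in these tables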;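 also: calls also rest on retests at 20 µM and on dose response follow-up; controls were probe without protein and protein plus probe with vehicle; some compounds called inactive have numbers as strong as hits; many hits fall short of the cut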
# Yeast UUG start: modulators of start codon recognition fidelity in yeast; AID 602363; S. cerevisiae UUG-firefly luciferase reporter, luminescence/redox ratio; 0.13% of 350,000 active; activity score, % at 18.7 µM;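 active = replicate mean at a twofold rise or more, about +100% in these data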;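 also: firefly luciferase made from a UUG start codon reports start codon fidelity; reporter light over untreated wells divided by growth signal over untreated wells; some hits fall short of that in this replicate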
# Rce1 inhib: inhibitors of yeast Ras-converting enzyme | Q03530 | yeast membranes, quenched prenylated peptide cleavage fluorescence | calls only | 0.27% of 290,000 active | AID 2563;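 active = fall in fluorescence gain of 50% or more versus controls, with final raw signal at or below 3038400; inconclusive = same 50% fall but final raw signal above 3038400; inactive = fall in fluorescence gain under 50%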;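 also: plate controls were neutral control wells for no effect and wells lacking membranes for full effect; tested at 10 µM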
# Target sequence (Q03530 whole entry, looked up): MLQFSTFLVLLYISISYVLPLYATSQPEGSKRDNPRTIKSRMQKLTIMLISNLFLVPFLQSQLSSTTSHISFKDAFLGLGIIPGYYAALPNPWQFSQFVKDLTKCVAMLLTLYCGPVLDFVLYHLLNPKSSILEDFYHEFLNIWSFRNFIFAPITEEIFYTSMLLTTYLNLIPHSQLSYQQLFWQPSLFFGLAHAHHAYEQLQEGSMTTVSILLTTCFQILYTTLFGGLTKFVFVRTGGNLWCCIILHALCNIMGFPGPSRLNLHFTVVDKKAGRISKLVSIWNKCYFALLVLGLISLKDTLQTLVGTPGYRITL
# MT1-MMP act inh: blocks activation of human MT1-MMP; 0.061% of 360,000 active; P50281; HT1080 RFP-PRO-GFP cells, GFP/RFP ratio fluorescence, overnight; percent of plate control window, DMSO zero; GFP/RFP ratio change, % at 20 µM;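 active = GFP/RFP ratio change of at least 30% with cell ATP level not reduced by more than half and red fluorescence within 50% of control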; also: strong numbers were not always called active
#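 Assay system: HT1080 RFP-PRO-GFP cells | Dosing: 20 µM single dose, 1% DMSO | Incubation: Cells overnight before dosing, compound overnight, 37 °C, 5% CO2 | Evaluation: GFP/RFP fluorescence ratio | Control set: DMSO-only wells and HT1080 RFP-L50D-GFP cell wells as references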
# Env fusion inh: blocks HIV Env-driven cell-cell fusion. HeLa-JRFL Env/CEM21 cell fusion, luciferase. inhibition, % at 12.3 µM. 1.1% of 360,000 active;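 active = mean replicate inhibition score of at least 50 and every replicate individually at or above 50; inconclusive = only one of the two criteria met; inactive = mean below 50 and not all replicates reaching 50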;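 also: 0% = plate neutral controls and 100% = maraviroc near 300 nM; one replicate is shown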
# eIF4H inh retest: further read-out of eIF4H inh, marked with its call; inhibition, %; compound at 20 µM; confirmation average;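 mean of two retest wells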
# PABP polyA inh retest: recorded beside PABP polyA inh, whose call it bears; inhibition, %; compound at 20 µM; confirmation repeats;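 mean of two retest wells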
# MT1-MMP act inh RFP: also measured in MT1-MMP act inh; calls as there; RFP signal change, %; measured here: RFP expression control read;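 0 = vehicle wells; hits needed this value within 50% of zero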
# * marks the source's active call; other numbers are inactive results; i = inactive; ? = inconclusive; . = not tested or not shown. An excerpt, so the mix of outcomes need not match the whole.
SMILES,eIF4H inh,CSC inhib,PABP polyA inh,Yeast UUG start,Rce1 inhib,MT1-MMP act inh,MT1-MMP act inh RFP,Env fusion inh,others
O=C(CCN1C(=O)S/C(=C\c2cccs2)C1=O)Nc1nccs1,-3,-3,-3,.,i,1,-4,6,
O=C(COC(=O)c1nn(-c2ccccc2)c(=O)c2ccccc12)NC1CCS(=O)(=O)C1 (configuration not stated),-2,14,-10,.,i,1,3,.,
COc1ccc(CCC(=O)Nc2ccc(C)c(S(=O)(=O)N(C)C)c2)cc1OC,5,-13,-5,.,i,-8,-22,45,
CCN1CCN(C(c2cccs2)C(C)NC(=S)Nc2cc(C)ccc2C)CC1 (configuration not stated),-5,-10,0,.,i,-5,-2,-4,
COc1ccc(OCC(=O)Nc2cc3oc4ccccc4c3cc2OC)cc1,-10,6,-9,3,i,0,-3,.,
NC(=O)C1=C[C@@H](c2coc3ccccc3c2=O)C[C@@H](OCc2ccc(CO)cc2)O1,0,-17,-8,0,i,-3,0,19,
O=C(CCCN1C(=O)c2ccccc2C1=O)Nc1ccc(S(=O)(=O)N2CCOCC2)cc1,-5,-4,5,8,i,1,9,-12,
COc1cccc(-c2nc(CS(=O)(=O)c3ccccc3)no2)c1,1,.,9,.,i,5,6,.,
CC(Nc1cc(N2CCOCC2)ccc1[N+](=O)[O-])c1ccccc1 (configuration not stated),3,-12,-8,.,i,1,3,-14,
COCCn1c(SCC(=O)OCc2ccccc2)nc2c1c(=O)[nH]c(=O)n2C,-5,-9,12,-14,i,2,3,18,
Fc1ccc2c(c1)C(c1ccc(N3CCOCC3)cc1)=NNC(c1cccs1)=N2,-7,23,6,-8,i,0,-4,.,
NS(=O)(=O)c1ccc(NC(=O)CN2C(=O)C3C4C=CC(C4)C3C2=O)cc1 (configuration not stated),-11,0,-8,-22,i,4,3,-12,
O=C(COC(=O)c1ccccc1O)NC1CCCc2ccccc21 (configuration not stated),.,-8,.,-10,.,2,1,.,
CC1(OC(=O)CCc2ccccc2)C(=O)C=C2C=C(c3ccc(C#N)cc3)N(C3CCCC3)C=C2C1=O (configuration not stated),59,10,36*,-13,i,2,6,38,eIF4H inh retest=30;PABP polyA inh retest=62*
CC1(c2nnc(-c3ccc(F)cc3)o2)CC(c2ccccc2)=NO1 (configuration not stated),-2,0,3,-7,i,-3,-2,-15,
CCOc1cc(C=O)ccc1OCC(=O)NC(C)(C)C,-11,-14,-8,.,i,-2,1,-2,
Cc1cc(-c2n[nH]c(=S)n2/N=C/c2c[nH]c3ccccc23)n[nH]1,-6,-10,-7,.,.,-1,-4,-14,
O=C1NC(=O)C(c2cccs2)(c2cccs2)N1,-6,-13,-9,10,.,-3,0,6,
COc1cc(/C=N/NC(=O)c2nc(-c3ccccc3)n(-c3ccccc3)n2)ccc1O,-2,-9,6,-9,i,3,1,6,
COc1ccc(NC(=O)COC(=O)c2ccc3c(c2)OCCO3)cc1OC,.,.,.,-11,.,-2,-1,22,
c1ccc2oc(-c3ccc4nc[nH]c4c3)nc2c1,-11,.,0,-3,i,4,1,.,
O=C(NOC(=O)c1ccccc1F)c1ccc(OC(F)F)cc1,-13,20,-2,-14,i,4,6,2,
CCOC(=O)C1=C(C)NC(=O)N(C(C)=O)C1c1ccc(Cl)cc1 (configuration not stated),2,4,-3,8,i,-5,-6,20,
O=C(CCN1C(=O)/C(=C\c2cccs2)SC1=S)Nc1ccc(C(=O)O)cc1,-6,-12,9,0,i,-10,6,.,
C[C@@H](NC(=O)Cn1cnc2c(OCc3ccccc3)ncnc21)c1cccc2ccccc12,.,.,.,-7,.,3,-8,-55,

# For convenience, 2 of the compounds above.
SMILES,eIF4H inh,CSC inhib,PABP polyA inh,Yeast UUG start,Rce1 inhib,MT1-MMP act inh,MT1-MMP act inh RFP,Env fusion inh,others
O=C(CCN1C(=O)/C(=C\c2cccs2)SC1=S)Nc1ccc(C(=O)O)cc1,-6,-12,9,0,i,-10,6,.,
C[C@@H](NC(=O)Cn1cnc2c(OCc3ccccc3)ncnc21)c1cccc2ccccc12,.,.,.,-7,.,3,-8,-55,

# Remaining list, next part
SMILES,eIF4H inh,CSC inhib,PABP polyA inh,Yeast UUG start,Rce1 inhib,MT1-MMP act inh,MT1-MMP act inh RFP,Env fusion inh,others
CN1CCN(C(=O)C23CC4CC(CC(C4)C2)C3)CC1,-2,-16,-10,.,i,.,.,.,
Cc1cc(C)nc(SSc2nc(C)cc(C)n2)n1,-8,-22,1,-20,i,-3,2,9,
COc1cccc(OC)c1C(=O)OCC(=O)N(C)c1ccccc1,5,-13,0,-3,i,-5,-1,24,
O=C(O)c1ccc2c(=O)n3c(nc2c1)/C(=C/c1ccc(OC(F)F)cc1OC(F)F)CC3,-4,0,5,-17,i,1,-3,-26,
COc1ccc(C2=NN(C(=O)c3cccnc3)C(c3ccccc3)C2)cc1 (configuration not stated),-6,10,0,.,i,-3,-3,7,
O=C(Cc1c(F)cccc1Cl)Nc1cccnc1,1,.,4,-17,i,-1,0,.,
Cc1cnc(C(=O)OCc2ccc(C#N)cc2)cn1,-8,-9,11,-15,i,0,2,-1,
Cc1ccsc1CNCC(O)c1ccccc1 (configuration not stated),-2,-4,-1,-3,i,3,1,6,
Cc1cc(=O)[nH]c(-n2[nH]c(C)cc2=O)n1,12,4,-14,-17,i,-2,5,.,
COc1cc(NC(=S)NCc2ccco2)cc(OC)c1OC,8,-18,11,-20,i,-3,0,-17,
Cc1cc(=O)oc2cc(OC(C)C(=O)NCCc3ccc(S(N)(=O)=O)cc3)ccc12 (configuration not stated),2,-6,0,-11,i,2,6,-8,
Cc1ccc(SCCNC(=O)CN(c2ccc3c(c2)OCO3)S(C)(=O)=O)cc1,-16,-3,-6,4,i,3,0,.,
CCOc1ccccc1CN1CCC(n2nccc2NC(=O)CCc2ccccc2)CC1,-6,4,-2,-6,i,1,3,6,
CN(Cc1nc(Cc2cccc(C(F)(F)F)c2)no1)C1CC(C)(C)NC(C)(C)C1,6,2,0,-17,i,3,6,-3,
O=C(NCC(c1ccccc1Cl)N1CCCC1)C1CCN(C(=O)Nc2ccccc2)CC1 (configuration not stated),.,-7,.,-12,.,-1,2,.,
C/C(=N\NC(=O)C(O)c1ccccc1)c1ccc(Cl)s1 (configuration not stated),-1,-17,-4,16,i,-1,-1,-15,
O=C(NCCN1CCOCC1)C1CCN(c2ncnc3c2sc2cccc(F)c23)CC1,0,1,0,-9,i,9,-3,12,
C/C(=N\Nc1nncc2ccccc12)c1ccc(C(C)(C)C)cc1,-2,18,-2,-4,i,2,1,.,
Cc1ccc(N2CC(C(=O)Nc3c(C)n(C)n(-c4ccccc4)c3=O)CC2=O)cc1 (configuration not stated),-6,-1,16,.,i,1,0,-4,
CC[C@]12c3[nH]c4ccc(Cl)cc4c3CCN1C(=O)[C@@H](CC(=O)NCCc1ccccn1)C[C@@H]2C(=O)N1CCN(C(=O)C2CC2)CC1,.,.,.,3,.,-1,-3,-20,
O=C(CSc1nnc(Cc2cc(=O)[nH]c(=O)[nH]2)n1-c1ccccc1)NCC1CCCO1 (configuration not stated),9,-3,-1,-10,i,6,12,-9,
CCCCn1c(=O)[nH]c(=O)c2c1nc(-c1ccc(C)c([N+](=O)[O-])c1)n2CC,-4,-5,10,-7,i,-2,1,18,
O=C(Nc1nccs1)c1cc([N+](=O)[O-])ccc1Cl,-9,6,-11,-7,i,0,-2,31,
CCn1nc(C(=O)Nc2cccc(C(F)(F)F)c2)c(Cl)c1Cl,-2,-11,0,-16,i,7,1,-63,
NC(N)=NC(N)=Nc1ccc(SC(F)(F)F)cc1,-6,-6,-9,.,i,-3,-4,2,

# A draw from above in order of length of the SMILES, high to low:
SMILES,eIF4H inh,CSC inhib,PABP polyA inh,Yeast UUG start,Rce1 inhib,MT1-MMP act inh,MT1-MMP act inh RFP,Env fusion inh,others
Cc1ccc(N2CC(C(=O)Nc3c(C)n(C)n(-c4ccccc4)c3=O)CC2=O)cc1 (configuration not stated),-6,-1,16,.,i,1,0,-4,
Cc1cc(-c2n[nH]c(=S)n2/N=C/c2c[nH]c3ccccc23)n[nH]1,-6,-10,-7,.,.,-1,-4,-14,
O=C(NOC(=O)c1ccccc1F)c1ccc(OC(F)F)cc1,-13,20,-2,-14,i,4,6,2,
O=C1NC(=O)C(c2cccs2)(c2cccs2)N1,-6,-13,-9,10,.,-3,0,6,

# More entries
SMILES,eIF4H inh,CSC inhib,PABP polyA inh,Yeast UUG start,Rce1 inhib,MT1-MMP act inh,MT1-MMP act inh RFP,Env fusion inh,others
NS(=O)(=O)c1cccc(NC(=O)CSc2nnc(-c3ccccc3)o2)c1,.,-2,.,.,.,-4,5,-14,
O=C(c1ccc([N+](=O)[O-])s1)N1CCc2ccccc21,65,.,49,-1,i,-3,0,-24,eIF4H inh retest=-6;PABP polyA inh retest=12
O=C(Nc1ccc(Cl)cc1)c1ccc2c(=O)n3c(nc2c1)CCCCC3,-8,.,-9,-5,i,-4,-20,?,
CCN(C(=O)COC(=O)c1ccc(C)c(S(=O)(=O)N2CCOCC2)c1)C1CCS(=O)(=O)C1 (configuration not stated),.,20,.,-26,i,-3,-5,13,
CC1(C)CC(=O)C(C(c2ccc(Br)cc2)C2C(=O)CC(C)(C)CC2=O)C(=O)C1,-6,-11,6,4,i,0,-2,12,
Cc1cccn2c(=O)c3cc(C(=O)NCCCn4ccnc4)n(C)c3nc12,91*,-5,67*,-14,i,6,4,-55,eIF4H inh retest=83*;PABP polyA inh retest=70*
CCC(C)c1ccc(NC(=O)N2CCN(C(=O)C3CCCO3)CC2)cc1 (configuration not stated),-5,-7,0,8,i,-1,0,-23,
Nc1c(-c2ccccc2)c(CSc2nc3ccccc3[nH]2)nn1-c1cccc(C(=O)O)c1,-9,-8,14,.,i,-4,4,13,
O=C1c2sc3nc4n(c(=O)c3c2CCC1Br)CCCCC4 (configuration not stated),0,3,-3,-23,i,11,16,-381,
Cc1cccc(Nc2nc(N)nc(-c3oc4ccccc4c3C)n2)c1,-1,62,-2,0,i,-5,-8,33,
COc1ccc(C2C(C(=O)O)c3ccccc3C(=O)N2Cc2ccco2)cc1 (configuration not stated),6,8,4,-7,i,-5,2,-16,
COc1ccccc1N(CC(=O)NCC1CCCO1)C(=O)CCC(=O)Nc1nccs1 (configuration not stated),-6,-9,-6,-8,i,2,4,.,
NC(=O)c1sc2nc(-c3cccs3)ccc2c1N,46,24,20,-13,i,-14,0,40,
O=C(c1cc2cc(C(F)(F)F)ccc2s1)N1CCOCC1,-4,.,-17,.,i,-1,0,5,
O=C(CN1C(=O)NC2NC(=O)NC21)NC1CCCCC1 (configuration not stated),.,3,.,-6,i,4,2,-4,
Cn1c(=O)c2c(nc(NCC3CCCO3)n2Cc2ccccc2)n(C)c1=O (configuration not stated),-8,-16,-2,-13,i,3,2,.,
CC(C)c1ccc(NC(=O)C2=NNC(=O)CC2)cc1,-5,-12,-3,.,i,-1,-3,-38,
CCCSCCCNC(=O)c1cc2c(s1)CS(=O)(=O)C2,5,.,1,6,i,-13,0,-22,
O=C(Nc1ccccc1)c1ccc(NCCN2CCOCC2)c(S(=O)(=O)N2CCOCC2)c1,-7,-12,-12,-16,i,3,4,21,
CCOC(=O)COc1ccc(C2NC(C(=O)O)CS2)cc1 (configuration not stated),-7,15,-8,-10,i,-2,-2,.,
Cc1c(C(=O)N(Cc2cccs2)C2CCS(=O)(=O)C2)oc2ccccc12 (configuration not stated),-5,-12,3,18,i,-4,-6,-10,
O=C(Oc1cc(-c2ccccc2)no1)c1ccc(F)cc1,-13,-5,10,11,i,1,6,.,

# Screening results (PubChem BioAssay)
